Bioassay records: PubChem, several laboratories
Mtb betalactam: beta-lactam sensitization of Mtb H37Rv; M. tuberculosis H37Rv growth with meropenem, percent inhibition; hits of this screen are not shown here; inhibition, % at 25 µM; 0.27% of 330,000 active; AID 434955;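 active = about 74% or more and at least 40 points above the plate without the antibiotic, then above 30% in a dose series; inconclusive = first-round hits that could not be retested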;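 also: growth measured after seven days incubation then overnight dye step; 0% = bacteria only wells and 100% = bacteria with antibiotic; twin plates without the antibiotic show which effects depend on it; some results filed as inactive read as strong as hits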
RecA splice inh: blocks M. tuberculosis RecA intein splicing; cell-free RecA intein splicing, fluorescence; P9WHJ3; inhibition, %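 (about 9 µM by stock and volumes)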; 0.75% of 290,000 active; in the data active = inhibition above about 30%; inconclusive = no clear call, values can overlap the other calls;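 also: 0% = vehicle wells and 100% = reference inhibitor control wells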
Target sequence (P9WHJ3 whole entry, looked up, canonical isoform): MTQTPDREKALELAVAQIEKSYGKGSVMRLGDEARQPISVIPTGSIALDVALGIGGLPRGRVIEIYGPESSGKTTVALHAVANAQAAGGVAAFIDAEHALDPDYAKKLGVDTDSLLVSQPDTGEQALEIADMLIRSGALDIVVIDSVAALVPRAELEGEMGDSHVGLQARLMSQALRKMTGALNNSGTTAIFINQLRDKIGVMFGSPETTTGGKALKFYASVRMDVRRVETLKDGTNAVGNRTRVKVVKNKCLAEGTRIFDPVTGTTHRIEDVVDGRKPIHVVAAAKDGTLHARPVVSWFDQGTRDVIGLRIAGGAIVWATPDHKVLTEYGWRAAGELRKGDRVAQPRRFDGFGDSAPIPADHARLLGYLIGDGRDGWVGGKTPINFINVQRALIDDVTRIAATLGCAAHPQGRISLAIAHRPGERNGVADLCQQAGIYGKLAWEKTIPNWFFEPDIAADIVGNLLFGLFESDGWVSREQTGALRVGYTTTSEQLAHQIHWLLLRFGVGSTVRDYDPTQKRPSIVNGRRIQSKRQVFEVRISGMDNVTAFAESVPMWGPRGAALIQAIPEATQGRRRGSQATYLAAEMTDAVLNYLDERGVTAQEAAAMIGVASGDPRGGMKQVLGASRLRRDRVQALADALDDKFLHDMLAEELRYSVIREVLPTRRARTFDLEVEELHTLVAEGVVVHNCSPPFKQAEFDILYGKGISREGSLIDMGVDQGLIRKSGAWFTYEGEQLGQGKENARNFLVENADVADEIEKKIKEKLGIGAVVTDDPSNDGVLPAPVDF
Arbovirus inh: antivirals against arbovirus infection; 0.37% of 200,000 active; AID 1251; inhibition, % at 10 µM; arbovirus infection cell-based antiviral screen;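 active = inhibition from about 30%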;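 also: bluetongue infection of BSR cells; cell survival read as ATP light after 72 h; 0% = infected wells without compound and 100% = uninfected wells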
YopH PTP inh: blocks Yersinia enterocolitica YopH tyrosine phosphatase; AID 898; inhibition, %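 (about 10 µM by stock and volumes)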; fluorescence Ex485/Em525; 0.16% of 140,000 active;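 active = inhibition of 50% or more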;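 also: controls were vehicle for no effect and minimum signal wells for full effect; inactives centre near -20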
Mtb growth: M. tuberculosis H37Rv growth inhibitors, H37Rv strain (AID 1626) | M. tuberculosis H37Rv growth inhibition; higher % means a stronger effect | inhibition, % at 10 µM; hits with a dose series show IC50 in µM | 0.95% of 220,000 active;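 active = confirmed in a dose series; inconclusive = inhibition above 80% but not taken into the dose series; inactive = below 80% or under 30% at every dose of the series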;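 also: bacteria incubated seven days before Alamar blue readout; 0% = bacteria only wells and 100% = bacteria with antibiotic wells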
Arbovirus inh repeat: also measured in Arbovirus inh; calls as there; inhibition, %; measured here: 10K subset replicate screen; many hits read low in the repeat;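 first of two repeat runs on a subset; 0% = infected and 100% = uninfected wells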
Numbers without * were called inactive. Not all compounds are listed. The share of hits here may be higher or lower than overall.

How did Cc1ccc(C(=O)/C=C/c2cn(CC(O)CN3CCOCC3)c3ccccc23)cc1 (stereo not drawn) do in these assays?
Mtb betalactam: 96; Arbovirus inh: 2; YopH PTP inh: -5; Mtb growth: 78%

What do the screens show for `Cc1c(C(=O)NC(C(C)C)C(C)C)cccc1[N+](=O)[O-]`?
Mtb betalactam: 3; RecA splice inh: 0.5; Arbovirus inh: -2; YopH PTP inh: -30; Mtb growth: 5%

How did COCCNC(=O)CN(C)S(=O)(=O)c1ccc2c(c1)OCCO2 do in these assays?
Mtb betalactam: -1; RecA splice inh: -1.2; Arbovirus inh: 6; YopH PTP inh: -5; Mtb growth: 0%

Results for O=C(c1ccc(Sc2ccc(F)cc2)c([N+](=O)[O-])c1)N1CCOCC1 ?
Mtb betalactam: -11; RecA splice inh: 0.2; Arbovirus inh: 2; Mtb growth: -4%

How did CN(C)/C=C/C(=O)c1cccc(C(F)(F)F)c1 do in these assays?
Mtb betalactam: 11; RecA splice inh: -0.8; Arbovirus inh: -9; Mtb growth: 9%

How did CC(=O)Nc1ccc(S(=O)(=O)Nc2cc(-c3ccccc3)nn2C)cc1 do in these assays?
Mtb betalactam: -13; RecA splice inh: -3.1; Mtb growth: -3%

What do the screens show for `Cc1cc(N2CCOCC2)nc2ccc(NC(=S)NCCN(C)C)cc12`?
Mtb betalactam: 5; RecA splice inh: -3.6

Results for COc1ccc(N2CCN(c3ccc4nnc(CCC(=O)Nc5ccc(C)cc5)n4n3)CC2)cc1 ?
Mtb betalactam: 0; RecA splice inh: -3.5

How did N#C/C(=C/c1ccc(N2CCOCC2)o1)C(=O)Nc1ccccc1 do in these assays?
RecA splice inh: -1.6; Arbovirus inh: 9; Mtb growth: 8%

What do the screens show for `COc1ccccc1N1CCN(Cc2cc(=O)n3ccsc3n2)CC1`?
Mtb betalactam: -5; RecA splice inh: -2.7; Arbovirus inh: 3; YopH PTP inh: 1; Mtb growth: 1%

At a glance, part of the list above:
How did Cc1ccc(C(=O)/C=C/c2cn(CC(O)CN3CCOCC3)c3ccccc23)cc1 (stereo not drawn) do in these assays?
Mtb betalactam: 96; Arbovirus inh: 2; YopH PTP inh: -5; Mtb growth: 78%

What do the screens show for `Cc1c(C(=O)NC(C(C)C)C(C)C)cccc1[N+](=O)[O-]`?
Mtb betalactam: 3; RecA splice inh: 0.5; Arbovirus inh: -2; YopH PTP inh: -30; Mtb growth: 5%

(next part)
Results for CCOC(=O)C1CCN(C(=O)c2ccc(CNS(=O)(=O)c3ccc(OC)cc3)cc2)CC1 ?
Mtb betalactam: -1; RecA splice inh: -1.7; Arbovirus inh: -4; Mtb growth: 4%

Results for CC(Sc1nnc(N)s1)C(=O)NC1CCCCC1C (stereo not drawn) ?
Mtb betalactam: 3; RecA splice inh: -0.5

Results for Cc1cc(Cl)ccc1Oc1ncnc2oc(-c3ccccc3)cc12 ?
Mtb betalactam: 16; RecA splice inh: -4.4; Arbovirus inh: 13; YopH PTP inh: 10

How did COc1ccc(CN=C2NC(=O)CC(C(=O)Nc3cc(C)cc(C)c3)S2)cc1 (stereo not drawn) do in these assays?
Mtb betalactam: 8; RecA splice inh: -0.5; Arbovirus inh: -3; YopH PTP inh: -21; Mtb growth: -8%

What do the screens show for `CCn1cc(C(=O)N2CCOCC2)c(=O)c2cc(S(=O)(=O)N(C)C3CCCCC3)ccc21`?
Mtb betalactam: inconclusive; RecA splice inh: -2.7; Arbovirus inh: 9; YopH PTP inh: -28; Mtb growth: -9%; Arbovirus inh repeat: 8

What do the screens show for `Cc1nn(-c2ccccc2)c(C)c1NC(=O)COC(=O)CC(C)c1ccccc1` (stereo not drawn)?
Mtb betalactam: -11; RecA splice inh: -1.1

Results for COc1ccc(/C=N/NC(=O)c2cccc(Br)c2)cc1CSc1ccccn1 ?
Mtb betalactam: -1; RecA splice inh: -3.0; Arbovirus inh: -13; YopH PTP inh: -22; Mtb growth: 4%

What do the screens show for `c1csc(-c2noc(CN3CCc4sccc4C3)n2)c1`?
Mtb betalactam: -5; RecA splice inh: 5.2; Arbovirus inh: -7; Mtb growth: 0%

What do the screens show for `COc1ccc(C(=O)OCC(=O)Nc2nnc(-c3ccccc3)o2)cc1`?
Mtb betalactam: 92; RecA splice inh: -6.0

How did CC(C)c1nc(SCC(=O)NCc2ccccc2)n[nH]1 do in these assays?
Mtb betalactam: 9; RecA splice inh: 2.0; Arbovirus inh: -4; YopH PTP inh: -40; Mtb growth: 5%

What do the screens show for `CCOC(=O)N1CCC(n2c(SCC(=O)N3CCCC3)nc3ccccc3c2=O)CC1`?
Mtb betalactam: -3; RecA splice inh: -2.3; Arbovirus inh: 1; YopH PTP inh: -32; Mtb growth: 0%

Results for Cc1cc(OCCN2CCCCC2)nc2ccccc12 ?
Mtb betalactam: -4; RecA splice inh: -0.8; Arbovirus inh: 1; YopH PTP inh: -15; Mtb growth: 5%

How did O=C(Nc1nc2ccsc2c(=O)s1)c1ccc(F)cc1 do in these assays?
Mtb betalactam: 52; RecA splice inh: -0.2; Mtb growth: 0%

Results for CCOP(=O)(OCC)c1ccccc1OCP(C)(=O)COc1ccccc1P(=O)(OCC)OCC ?
Mtb betalactam: 6; RecA splice inh: -1.2

What do the screens show for `CCOC(=O)c1ccc(NC(=O)c2cc3c(C)nn(-c4ccccc4Cl)c3s2)s1`?
Mtb betalactam: 5; RecA splice inh: -2.5; Arbovirus inh: -15; YopH PTP inh: -11; Mtb growth: -15%

What do the screens show for `Cc1ccc(Nc2cc(-c3ccccc3)nc3ncnn23)cc1`?
Mtb betalactam: -1; RecA splice inh: 0.9; Mtb growth: 15%

Results for CC(=O)NC(CC(=O)O)c1ccc(F)cc1 (stereo not drawn) ?
Mtb betalactam: -9; RecA splice inh: -3.2; Arbovirus inh: 4; Mtb growth: -2%

Results for COc1cccc(NC(=S)N(CCc2c(C)[nH]c3ccccc23)Cc2ccco2)c1 ?
Mtb betalactam: -10; RecA splice inh: 16; Arbovirus inh: -4; YopH PTP inh: -35; Mtb growth: 10%

How did COC(=O)c1cc(Br)c(=O)n(Cc2ccc(C(=O)O)cc2)c1 do in these assays?
Mtb betalactam: -9; RecA splice inh: 0.1; Arbovirus inh: 0; YopH PTP inh: -41; Mtb growth: -9%

What do the screens show for `COc1ccc(CN2C(=O)c3cccnc3C2Nc2cc(Cl)ccc2OC)cc1` (stereo not drawn)?
Mtb betalactam: -2; RecA splice inh: 21; Arbovirus inh: -2; YopH PTP inh: -35; Mtb growth: -1%

Results for Cc1ccc(Nc2nnc(SC(C)C(=O)Nc3c(C)n(C)n(-c4ccccc4)c3=O)s2)cc1 (stereo not drawn) ?
Mtb betalactam: 5; RecA splice inh: -3.6; Arbovirus inh: 8; YopH PTP inh: 5; Mtb growth: -1%

How did CCOc1ccc(CCNc2nc3ccccc3n3c(C)nnc23)cc1OCC do in these assays?
Mtb betalactam: 1; RecA splice inh: 1.6

Results for CC(C)CNC(=O)COc1ccccc1[N+](=O)[O-] ?
Mtb betalactam: -5; RecA splice inh: -3.9; Arbovirus inh: -2; YopH PTP inh: -21; Mtb growth: -1%

How did COc1ccccc1CN(C)CC(=O)Nc1ccccc1-c1ccccc1 do in these assays?
Mtb betalactam: -6; RecA splice inh: -3.1; Arbovirus inh: 3; Mtb growth: 3%

Results for O=c1[nH]c(CSc2nnc(-c3cccnc3)n2C2CCCCC2)nc2ccccc12 ?
RecA splice inh: -0.5; Arbovirus inh: 9; YopH PTP inh: -18

How did CC1=C(C(=O)OC2CCCCC2)C(c2ccc(N(C)C)cc2)NC(=O)N1 (stereo not drawn) do in these assays?
Mtb betalactam: -11; RecA splice inh: -5.3

What do the screens show for `Cc1noc(C)c1C(=O)N1CCN(c2ncccn2)CC1`?
Mtb betalactam: -9; RecA splice inh: -1.0; Arbovirus inh: 10; YopH PTP inh: 5; Mtb growth: -6%

Results for NNC(=O)CNC(=O)CNS(=O)(=O)c1ccccc1 ?
Mtb betalactam: 1; RecA splice inh: -1.7; Arbovirus inh: 8; Mtb growth: -2%

Results for O=C(CSc1nnc(CNC(=O)c2c(F)cccc2F)o1)NCc1ccc(F)cc1 ?
Mtb betalactam: inconclusive; RecA splice inh: 3.4

What do the screens show for `Cc1ccc(S(=O)(=O)N2CCN(Cc3cccc(F)c3)CC2)cc1`?
Mtb betalactam: -4; RecA splice inh: 2.3

How did CCOc1ccc(NC(=O)C2CC(=O)N(c3ccc4c(c3)OCCO4)C2)cc1OCC (stereo not drawn) do in these assays?
Mtb betalactam: 0; RecA splice inh: 0.6

How did O=C(/C=C/c1ccccc1)N1CCN(c2cccc(Cl)n2)CC1 do in these assays?
Mtb betalactam: 4; RecA splice inh: -0.6; Arbovirus inh: 2; YopH PTP inh: -36; Mtb growth: 81%

What do the screens show for `CC(=O)N1CCc2cc(S(=O)(=O)CCC(=O)Nc3ccc4c(c3)OCCO4)ccc21`?
Mtb betalactam: -7; RecA splice inh: -1.8; Arbovirus inh: 8; YopH PTP inh: -52

Results for Oc1cccc(/C=N/NC(=S)Nc2cccnc2)c1O ?
Mtb betalactam: 1; RecA splice inh: -11; Arbovirus inh: -8; YopH PTP inh: -20; Mtb growth: -3%

Results for COc1ccc(NC(=O)N2CCN(C(=O)C(Cc3ccc(F)cc3)NC(C)=O)CC2)cc1 (stereo not drawn) ?
Mtb betalactam: -2; RecA splice inh: -1.5; Arbovirus inh: -1; Mtb growth: -3%

What do the screens show for `CCOc1ccc(NC(=O)C2C(C(=O)O)C3(Cl)C(Cl)=C(Cl)C2(Cl)C3(Cl)Cl)cc1` (stereo not drawn)?
Mtb betalactam: -10; RecA splice inh: 13; Arbovirus inh: 20; Mtb growth: inconclusive

Results for CCN(CCCNC(=O)C1CCN(S(=O)(=O)N2CCC3(CC2)OCCO3)CC1)c1ccccc1 ?
Mtb betalactam: 1; RecA splice inh: -5.3; Arbovirus inh: 4; YopH PTP inh: -32; Mtb growth: -1%

What do the screens show for `Cc1csc(NC(=O)CSc2nc(=O)n(CCCN(C)C)c3c2CCC3)n1`?
Mtb betalactam: -2; RecA splice inh: -0.1

Results for CCN1C(=O)/C(=C/N(C(C)=O)c2ccccc2)N(c2ccccc2)C1=S ?
Mtb betalactam: 8; RecA splice inh: 3.4; Arbovirus inh: -44; YopH PTP inh: -2; Mtb growth: 11%

What do the screens show for `Cc1cc2nnc(SCc3ccccc3)n2c(N)n1`?
Mtb betalactam: inconclusive; RecA splice inh: 0.0; Arbovirus inh: -5; YopH PTP inh: -2; Mtb growth: 6%

How did COc1ccccc1N(CC(O)COc1ccc(C)cc1)S(=O)(=O)c1ccccc1 (stereo not drawn) do in these assays?
Mtb betalactam: -1; RecA splice inh: 8.4; Arbovirus inh: -10; YopH PTP inh: -21; Mtb growth: 5%

How did Cc1onc(-c2ccccc2Cl)c1C(=O)NNC(=O)c1nn(C)cc1Cl do in these assays?
Mtb betalactam: 0; RecA splice inh: -0.8; Arbovirus inh: 2; Mtb growth: -15%

How did NC(=O)COC(=O)c1cccc2c1-c1ccccc1C2=O do in these assays?
Mtb betalactam: -5; RecA splice inh: 0.7; Arbovirus inh: 0; Mtb growth: -2%

What do the screens show for `O=C(NC(=S)Nc1cc([N+](=O)[O-])ccc1O)c1cccnc1`?
Mtb betalactam: 78; RecA splice inh: 4.7; Arbovirus inh: 7; Mtb growth: -7%

How did CCCNC(=O)N1CCC(Cc2ccccc2)CC1 do in these assays?
Mtb betalactam: -9; RecA splice inh: 0.4

What do the screens show for `COc1ccc2oc(C(=O)OCC(=O)N(C)C3CCS(=O)(=O)C3)c(C)c2c1` (stereo not drawn)?
Mtb betalactam: -12; RecA splice inh: -0.7

How did Cc1cc(N2CCN(C(=O)c3ccco3)CC2)n2nc(-c3cccc(F)c3)cc2n1 do in these assays?
Mtb betalactam: inconclusive; RecA splice inh: 0.8; Arbovirus inh: -13; YopH PTP inh: -49; Mtb growth: -5%

How did O=C(/C=C/c1ccccc1F)c1cccc([N+](=O)[O-])c1 do in these assays?
Mtb betalactam: 100; RecA splice inh: -0.7; Arbovirus inh: -37; YopH PTP inh: -23; Mtb growth: 6.2µM*

How did Cc1nn(C)c(C)c1Nc1ccc(N2C(=O)C3CC=CCC3C2=O)cc1[N+](=O)[O-] (stereo not drawn) do in these assays?
Mtb betalactam: -7; RecA splice inh: -1.3; Arbovirus inh: 3; Mtb growth: 2%

How did Cc1ccc(C(C(=O)NC2CCCC2)N(Cc2ccc3c(c2)OCO3)C(=O)Cc2cccs2)cc1 (stereo not drawn) do in these assays?
Mtb betalactam: -9; RecA splice inh: 0.6; Arbovirus inh: -17; YopH PTP inh: -32; Mtb growth: 0%

Results for CCc1ccccc1NC(=O)c1cnc2scc(C)n2c1=O ?
Mtb betalactam: 8; RecA splice inh: -7.3; Arbovirus inh: -6; YopH PTP inh: -49; Mtb growth: 18%

How did O=C(O)Cn1c(=O)c2c(c3ccccc31)CCC2 do in these assays?
Mtb betalactam: -1; RecA splice inh: 5.9
